# High-throughput results deposited in PubChem BioAssay by National Center for Advancing Translational Sciences (NCATS).
# VDR inhibitor – inhibitors of human vitamin D receptor. P11473. VDR-SRC2-3 peptide fluorescence polarization, 2 h. Potency, µM, for inactives: max response, negative = inhibition, hits mostly inhibitors. hit rate 0.93% among 400,000. AID 504847; active = well fitted inhibition curve with a large enough effect; inconclusive = small, poorly fitted or top-dose-only effect, or another doubt; inactive = no such curve, though single readings can be large or run the other way; note: series mostly up to about 120 µM
# Target sequence (P11473 whole entry, looked up): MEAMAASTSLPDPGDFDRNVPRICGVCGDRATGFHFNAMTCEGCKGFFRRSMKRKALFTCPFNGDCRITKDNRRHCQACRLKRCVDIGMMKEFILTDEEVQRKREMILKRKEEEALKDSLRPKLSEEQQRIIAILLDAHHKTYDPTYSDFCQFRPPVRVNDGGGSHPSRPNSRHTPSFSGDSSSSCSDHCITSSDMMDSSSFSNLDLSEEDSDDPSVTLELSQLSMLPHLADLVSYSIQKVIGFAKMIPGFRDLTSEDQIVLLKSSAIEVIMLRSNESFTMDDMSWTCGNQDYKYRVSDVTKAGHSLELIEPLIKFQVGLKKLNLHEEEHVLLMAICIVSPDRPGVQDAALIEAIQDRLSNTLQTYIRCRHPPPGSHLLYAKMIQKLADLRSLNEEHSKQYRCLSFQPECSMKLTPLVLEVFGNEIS
#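 VDR–SRC2-3 interaction, FP format. Cmpds 23 nl via pintool, brief spin, 2 h ambient incubation.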
# Active calls of the source: *; ? = inconclusive; & = joins results of further samples; ! = not active in a repeat. % is set by controls: 0 for no effect and ±100 for the full control effect; potency is the fitted concentration of half-maximal effect.
nr | Compound | VDR inhibitor
1 | NOCC(=O)O | -1%&-4%
2 | O=C(CSc1nc2ccccc2n1Cc1cccc(Cl)c1)N1CCN(c2ccc(F)cc2)CC1 | 3%
3 | Cc1c(Cn2ccnc2)c2ccccc2n1CCC(=O)O | -4%
4 | CCCCNc1ccc(C(=O)OCCOCCOCCOCCOCCOCCOCCOCCOCCOC)cc1 | -10%&-16%
5 | C=C1c2cccc(O)c2C(O)=C2C(=O)[C@]3(O)C(O)=C(C(N)=O)C(=O)C(N(C)C)C3C(O)C12 (stereo partly drawn) | 35µM*
6 | C[C@@H](C(=O)O)c1ccc(C(=O)c2cccs2)cc1 | -4%
7 | COc1ccc(-c2cc(=S)ss2)cc1 | 40µM*
8 | CC12CCC(=O)C=C1CCC1C2CCC2(C)C1CCC2(O)C(=O)CO (stereo not drawn) | -19%
9 | COc1ccc(Cn2c(SCc3ccc(C(=O)NC4CCCC4)cc3)nc3ccncc32)cc1 | 2%
10 | CN(C)CCCC1(c2ccc(F)cc2)OCc2cc(C#N)ccc21 (stereo not drawn) | -7%&3%
11 | COc1ccc(-c2cn3cccnc3n2)cc1NC(=O)c1cc(C)cc(C)c1 | 1%
12 | CCCCC(=O)O[C@@]1(C(=O)CO)C(C)CC2C3CCC4=CC(=O)C=C[C@@]4(C)[C@]3(F)C(O)C[C@]21C (stereo partly drawn) | ?
13 | CCCCn1cnc2cc(NCc3ccccc3Cl)ccc21 | -14%
14 | C1COC(NC(C2CC2)C2CC2)=N1 | ?
15 | C[N+]1(C)CCC(=C(c2ccccc2)c2ccccc2)CC1 | -23%&-3%
16 | CC(O)CNC(=O)C(=O)Nc1c2c(nn1-c1ccc(Cl)cc1)CSC2 (stereo not drawn) | 8%
17 | Cc1ccc(N(CC2=NCCN2)c2cccc(O)c2)cc1 | -2%&-2%&11%&-14%&-16%&9%&7%
18 | CNCCCN1c2ccccc2CCc2ccccc21 | 2%&2%&-12%&-2%
19 | CNC1C(O)C2OC3OC(C)CC(=O)[C@@]3(O)O[C@H]2[C@H](NC)C1O (stereo partly drawn) | 6%
20 | Oc1ccc2c(c1)OCC1(O)Cc3cc(O)c(O)cc3C21 (stereo not drawn) | 79µM*
21 | CC1(C)O[C@H]2CC(=O)OC[C@@]23C1CC(=O)[C@]1(C)C3CC[C@@]2(C)[C@H](c3ccoc3)OC(=O)[C@H]3O[C@]321 (stereo partly drawn) | -5%
22 | Oc1ccc(C2CNCCc3c2cc(O)c(O)c3Cl)cc1 (stereo not drawn) | 2%&-5%&8%&-3%
23 | COc1ccc(CC(=O)Nc2c(C(=O)N3CCN(c4ccccc4F)CC3)oc3ccccc23)cc1OC | 18%
24 | CCc1ccc(CCOc2ccc(CC3SC(=O)NC3=O)cc2)nc1 (stereo not drawn) | -5%&2%&0%
25 | CC(=O)O[C@]1(C(C)=O)CC[C@@H]2[C@@H]3C=C(Cl)C4=CC(=O)[C@H]5C[C@@H]5[C@]4(C)[C@H]3CC[C@]21C | ?
26 | C=CCN1CC(C(=O)N(CCCN(C)C)C(=O)NCC)CC2c3cccc4[nH]cc(c34)CC21 (stereo not drawn) | -3%
27 | CCN(CC)CCNC(C(=O)OCCC(C)C)c1ccccc1 (stereo not drawn) | -6%
28 | Cc1nc2c(-c3ccccc3)c(C)[nH]n2c(=O)c1Cc1ccc(Br)cc1 | -5%
29 | O=C(CCCCCn1c(=O)c2sccc2n(CC(=O)Nc2cccc(Cl)c2)c1=O)NCc1ccc2c(c1)OCO2 | 26%
30 | Cc1cccc(N2CCN(C(=O)CCC(=O)NNc3nc4ccccc4c4nc(C)nn34)CC2C)c1 (stereo not drawn) | 5%
31 | COc1ccc(C[C@H]2COC(=O)[C@@H]2Cc2ccc(OC3OC(CO)C(O)C(O)C3O)c(OC)c2)cc1OC (stereo partly drawn) | -17%
32 | Cc1ccc(=O)n(-c2ccccc2)c1 | -2%&-1%&-1%
33 | O=c1oc2c(O)c(O)cc3c(=O)oc4c(O)c(O)cc1c4c23 | 40µM*!
34 | O=C(Cn1c(=O)n(Cc2ccco2)c(=O)c2oc3ccccc3c21)Nc1ccccc1 | -1%
35 | CCCCCC(=O)O[C@]1(C(C)=O)CC[C@H]2[C@@H]3CCC4=CC(=O)CC[C@]4(C)[C@H]3CC[C@@]21C | ?
36 | CC(C)COC(=O)c1ccc(N)cc1 | 3%
37 | COc1cc([C@@H]2Oc3cc(C4Oc5cc(O)cc(O)c5C(=O)[C@H]4O)ccc3O[C@H]2CO)ccc1O (stereo partly drawn) | 7%
38 | C#C[C@@]1(O)CC[C@@H]2[C@@H]3CCC4=CC(=O)CC[C@@H]4[C@H]3CC[C@]21CC | 3%
39 | CC1CC2C3CCC4=CC(=O)C=C[C@]4(C)[C@@]3(Cl)C(O)C[C@]2(C)C1(OC(=O)c1ccco1)C(=O)CCl (stereo partly drawn) | 10%
40 | CCNC(=O)NCc1cccc(Cl)c1 | 4%
41 | COC(=O)C1=CO[C@@H](O[C@@H]2O[C@H](CO)[C@@H](O)[C@H](O)[C@H]2O)C2C1C[C@H](O)[C@@H]2C (stereo partly drawn) | 4%
42 | COc1nccc(-c2c(-c3ccc(F)cc3)ncn2C2CCC(O)CC2)n1 (stereo not drawn) | -6%
43 | O=C(O)c1cccnc1Nc1cccc(C(F)(F)F)c1 | ?
44 | CN(C)CCC[C@]1(c2ccc(F)cc2)OCc2cc(C#N)ccc21 | 0%
45 | O=C(O)CCC(=O)c1ccc(-c2ccccc2)cc1 | -13%&-5%
46 | C[C@H](N[C@@H](C)COc1ccccc1)[C@H](O)c1ccc(O)cc1 | 14%
47 | CC[C@H](NC(C)C)[C@H](O)c1ccc(O)c2[nH]c(=O)ccc12 | -5%&2%
48 | COc1ccc(-c2cc(=O)c3c(O)cc(O[C@@H]4O[C@H](CO[C@@H]5O[C@@H](C)[C@H](O)[C@@H](O)[C@H]5O)[C@@H](O)[C@H](O)[C@H]4O)cc3o2)cc1O | 0%
49 | CCCCNc1ccc(C(=O)OCCN(C)C)cc1 | -19%&-8%&-13%&2%
50 | O=c1cc(O)c(Cl)c[nH]1 | 6%

# (next part)
nr | Compound | VDR inhibitor
51 | CCOC(=O)[C@H](CCc1ccccc1)N[C@@H](C)C(=O)N1Cc2ccccc2C[C@H]1C(=O)O | -21%
52 | C/C=C/C(=O)N(CC)c1ccccc1C | 0%&-1%
53 | COc1ccccc1N1CCN(CCCN=C2CC(=O)N(C)C(=O)N2C)CC1 | -1%
54 | COc1c(O)cc2c(c1O)C1OC(CO)C(O)[C@H](O)[C@H]1OC2=O (stereo partly drawn) | -1%
55 | C=CC[n+]1ccc(/C=C2\C=Cc3cc(C)ccc3N2CC)c2ccccc21 | -21%
56 | NC(=O)C1(N2CCCCC2)CCN(CCCC(=O)c2ccc(F)cc2)CC1 | -1%&-5%
57 | COc1ccc(C2CNC(=O)C2)cc1OC1CCCC1 (stereo not drawn) | 1%&6%
58 | CCCN1CCCC(c2cccc(S(C)(=O)=O)c2)C1 (stereo not drawn) | 11%
59 | CCN(CC)CCOC(=O)c1ccc(N)cc1 | -4%&-9%&7%&7%
60 | Cc1c(C(=O)O)c(O)cc2c1C(=O)c1c(O)c([C@@H]3O[C@H](CO)[C@@H](O)[C@H](O)[C@H]3O)c(O)c(O)c1C2=O | 10%
61 | COCCn1c(SCC(=O)Nc2ccc(F)c(Cl)c2)nc2c(oc3ccccc32)c1=O | 10%
62 | C/C=C(/C)C(=O)OC(C)(C)[C@@H]1Cc2c(ccc3ccc(=O)oc23)O1 | -3%
63 | NC(CC(=O)Nc1ccc(Oc2cc(F)c(F)cc2Br)cc1)C(=O)O (stereo not drawn) | -8%
64 | COc1cc2ncnc(Nc3cccc(Cl)c3)c2cc1OC | -10%
65 | CCCOC(=O)c1ccc(N)cc1 | 0%
66 | COc1cc(-c2oc3cc(O)cc(O)c3c(=O)c2O[C@@H]2O[C@H](COC3O[C@@H](C)[C@H](O)[C@@H](O)[C@H]3O)[C@@H](O)[C@H](O)[C@H]2O)ccc1O (stereo partly drawn) | -7%
67 | COc1cc(C(c2c(C)[nH][nH]c2=O)c2c(C)[nH][nH]c2=O)ccc1OC(=O)c1cccc(C)c1 | ?
68 | C1CCC(C(C[C@@H]2CCCCN2)C2CCCCC2)CC1 | -8%
69 | CN[C@H]1[C@@H](O)[C@@H](NC)[C@@H]2O[C@@]3(O)C(=O)C[C@@H](C)O[C@H]3O[C@H]2[C@H]1O | -10%
70 | C[C@H](O)CN(C)C | 14%
71 | COc1ccc(-c2cc(=O)c3c(O)cc(OC4OC(COC5OC(C)C(O)C(O)C5O)C(O)C(O)C4O)cc3o2)cc1O (stereo not drawn) | ?
72 | Cc1cn(C2CC(O)C(CO)O2)c(=O)[nH]c1=O (stereo not drawn) | -1%
73 | Oc1ccc(/C=C\c2cc(O)cc(O)c2)cc1 | 5%
74 | Cc1cccc2c1NC(=O)C2(c1ccc(O)cc1)c1ccc(O)cc1 | 4%
75 | CC(C)=CCOc1c2ccoc2cc2oc(=O)ccc12 | 5%
76 | CCC(NC(C)C)C(O)c1ccc(O)c2[nH]c(=O)ccc12 (stereo not drawn) | -28%
77 | N[C@@H](Cc1c[nH]c2ccc(O)cc12)C(=O)O | 7%&-1%&6%
78 | CCCC[C@H](O)c1ccccc1 | 16%
79 | Cc1cncn1CCc1nc2c3ccccc3nc(SCC(=O)Nc3cccc(Cl)c3)n2n1 | 19%&1%
80 | COc1ccc(-n2nc3c(N4CCCC(C(=O)NCc5ccccc5C)C4)nnc(C)c3c2C)cc1 (stereo not drawn) | 21%
81 | N#Cc1ccc(C(c2ccc(C#N)cc2)n2cncn2)cc1 | ?

# This is a subset; count on the stated rates, not on these rows.
